High-throughput results: PubChem BioAssay, ICCB-Longwood Screening Facility, Harvard Medical School
MgrA DNA FP = S. aureus MgrA-DNA binding modulation. fluorescence polarization. inhibition, %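 (about 10 µg/mL by stock and volumes)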. 84,000 compounds, 0.13% hits;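 active = above 50% in either of two replicates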;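 also: 0% = protein plus DNA without compound and 100% = DNA alone without protein; higher means less MgrA bound to DNA so lower polarization; one replicate is shown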
Sa helicase inh = blocks Staphylococcus aureus DNA helicase. purified S. aureus helicase, fluorescence unwinding assay; about half of the hits fall short of the stated cut. inhibition, %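 (tested at about 80 µM)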. 120,000 compounds, 0.05% hits. AID 485395;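 active = both duplicates at 50% or more, or one of them with a favoured structure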;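 also: 0% = mean of negative control wells and 100% = mean of positive control wells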
An asterisk follows results filed as active; nt = no result given. Some of the compounds tested; count on the stated rates, not on these rows.

Value order – MgrA DNA FP, Sa helicase inh
CCOC(=O)C1=C(C)N=c2s/c(=C\c3cc(OC)c(OC)cc3[N+](=O)[O-])c(=O)n2C1c1ccc(OC)cc1 (stereo not drawn)
→ 0.1, nt
COc1cc(C=C2C(=O)NC(=O)NC2=O)ccc1OCC(C)C
→ nt, 18
C[C@H]1O[C@@H](O[C@H]2[C@@H](O)C[C@H](O[C@H]3[C@@H](O)C[C@H](O[C@H]4CC[C@]5(C)C6C[C@@H](O)[C@]7(C)[C@@H](C8=CC(=O)OC8)CC[C@]7(O)C6CC[C@@H]5C4)O[C@@H]3C)O[C@@H]2C)C[C@H](O)[C@@H]1O (stereo partly drawn)
→ -0.2, nt
COc1cccc(NC(=O)c2cc3cc4c5c(c3oc2=N)CCCN5CCC4)c1
→ nt, -102
CSC1=NCCN1Cc1ccccc1
→ 3.7, nt
COc1ccc(C2(CNS(=O)(=O)c3ccc(C)cc3)CCOCC2)cc1
→ -2.0, 7
CC1Cc2ccccc2N1C(=O)CCS(=O)(=O)c1cc2c(cc1Cl)NC(=O)CO2 (stereo not drawn)
→ nt, -22
COCc1c(C(=O)N2CCN(CCOc3ccccc3)CC2)oc2ccccc12
→ nt, -12
COc1ncnc2c1sc1ncccc12
→ -0.3, nt
O=S(=O)(NC1CCCCC1Sc1ncccn1)c1ccccc1 (stereo not drawn)
→ nt, -8

The last two entries of the section before come first, to join the parts:
Value order – MgrA DNA FP, Sa helicase inh
COc1ncnc2c1sc1ncccc12
→ -0.3, nt
O=S(=O)(NC1CCCCC1Sc1ncccn1)c1ccccc1 (stereo not drawn)
→ nt, -8
O=C(CCN1N=C(c2ccccc2)CCC1=O)NCCc1ccccc1
→ 0.9, -2
CC(C)(C)OC(=O)NC1CCN(C(=O)c2ccccc2)CC1
→ 0.2, nt
OC(CN1CCN(Cc2ccc3c(c2)OCO3)CC1)Oc1ccc(C(F)(F)F)cc1 (stereo not drawn)
→ -2.4, nt
CCOC(=O)c1cc2cc(Br)cc(Br)c2oc1=O
→ 1.6, nt
Brc1ccc(-c2cn3ccc4ccccc4c3n2)cc1
→ -3.0, nt
COCCN=c1scc(-c2ccc(O)c(C(N)=O)c2)n1/N=C/c1cccnc1
→ nt, -12
COC(=O)c1ccc(Oc2c(C(F)(F)F)oc3cc(O)ccc3c2=O)cc1
→ nt, 15
CCOc1ccc(NC(=O)CN2C(=O)c3cccc4cccc2c34)cc1
→ nt, 9
O=C1CCc2ccccc2N1
→ nt, -7
Nc1c2c(nc3c1CCC3)CCCC2
→ 1.2, 0
N#Cc1ccc(Oc2ccc(N3C(=O)CCC3=O)cc2)cc1
→ nt, 5
O=C(NCC1CCCO1)c1cnn2c(C(F)(F)F)cc(-c3ccccc3)nc12 (stereo not drawn)
→ 2.1, 24
CC(c1ccccc1)N1CCC(CN)C1 (stereo not drawn)
→ -3.4, 8
CCC(C)(C)NC(=O)Cc1cccs1
→ 0.7, 2
O=[N+]([O-])c1ccc(NCCc2ccccn2)nc1
→ -0.3, nt
CCOC(=O)c1nc(NC2CCN(Cc3ccccc3)CC2)c2ccccc2n1
→ nt, 22
Cc1ccc(-c2ccc(/C=c3\sc4nc5ccccc5n4c3=O)o2)c(Br)c1
→ -3.0, nt
CCNS(=O)(=O)c1ccc(CCC(=O)Nc2ccc(C(=O)OC)cc2)cc1
→ 1.2, 6
Clc1ccc(C2Oc3ccccc3C3CC(c4ccco4)=NN32)cc1 (stereo not drawn)
→ 1.2, -12
CCC(C)(C)c1ccc(OC2CSC2)cc1
→ 19, 12
Cc1cccc(C)c1OCC(C)N (stereo not drawn)
→ 4.2, nt
Cc1ccc(C2=NN(C(=O)c3ccc(Br)o3)C(c3ccc(C)cc3)C2)cc1 (stereo not drawn)
→ 2.4, 2
COC(=O)c1cc(N2C(=O)C3C4C=CC(C)(O4)C3C2=O)ccc1Cl (stereo not drawn)
→ 0.3, 0
O=C(N1CCN(c2ccccn2)CC1)C12CC3CC(CC(C3)C1)C2
→ -1.1, -5
CC(C)Oc1ccc(C(CC(=O)NC2CCOC(C)(C)C2)c2ccccc2)cc1 (stereo not drawn)
→ nt, -11
Cc1ccc(C)c(C(C)c2ccc(C)nc2)c1 (stereo not drawn)
→ -2.5, -2
NC(=O)c1ccccc1NC(=O)c1c(Cl)nc2sccn12
→ 3.0, -24
Cn1cc(C(=O)c2cccc(Cl)c2Cl)cc1C(=O)O
→ 0.5, nt
CCN=c1scc(-c2cc(C)c(C)cc2C)n1/N=C/c1ccc(C)o1
→ nt, 7
COc1ccc(CSc2cccc[n+]2[O-])cc1F
→ nt, -8
CC(=O)N1CCC(O)C2CCCCC21 (stereo not drawn)
→ nt, 6
OCn1c(=S)sc2ccccc21
→ 10, 1
CCc1nnc(NC(=O)CC23CC4CC(CC(C4)C2)C3)s1
→ nt, 13
CC(C)(C)c1cc(C(c2ccccn2)N2CCCC2)cc(C(C)(C)C)c1O (stereo not drawn)
→ 2.9, 13
CC1CCCCC1NC(=O)c1nn(C)c2c1CS(=O)(=O)c1ccccc1-2 (stereo not drawn)
→ nt, 21
CSc1sc(-c2ccn(C(C)=O)n2)c2c1C(=O)CC(C)(C)C2
→ 0.5, nt
CN1C2=C(C#N)C(=O)CN2c2ccccc21
→ nt, 7
CCOC(=O)CNC(=O)c1c(-c2c(Cl)cccc2Cl)noc1C
→ -0.7, nt
O=C(O)c1cccnc1Nc1ccccc1
→ 0.5, nt
O=C(Cc1c(C(=O)O)[nH]c2ccc(Cl)cc12)NC1CCCCC1
→ nt, 13
Cc1cc(N=Cc2c(O)n(-c3ccccc3F)c(=O)c3ccccc23)n[nH]1
→ nt, 21
CC(=O)NN1C(=O)c2ccccc2NC1c1ccccn1 (stereo not drawn)
→ nt, 17
CC(=O)Nc1ccc2oc(=O)ccc2c1
→ 0.0, 2
O=CNC(Cc1ccccc1)C(=O)O (stereo not drawn)
→ -1.1, 9
Cc1c(CCNC(NC(=O)c2ccc(Cl)cc2)(C(F)(F)F)C(F)(F)F)c2ccccc2n1C
→ -1.7, 11
S=c1nc(Cc2ccc(Cl)cc2)[nH][nH]1
→ nt, -17
COC(=O)CSc1cc(C(F)(F)F)c(C(=O)Nc2ccc(Cl)cc2)cn1
→ -2.9, nt
c1cnc2c(CN3CCCC3)cccc2c1
→ 1.9, 10
O=C(Nc1cccc(Cl)c1)c1ccc2c(Cl)c3c(nc2c1)CCCC3
→ 0.0, 4
COc1cc(/C=C2/SC(N)=NC2=O)ccc1OCc1ccc([N+](=O)[O-])cc1
→ 4.5, nt

Carrying on.
Value order – MgrA DNA FP, Sa helicase inh
CCC(C)NC(=O)CC12CC3CC(C1)CC(CC(=O)NC(C)CC)(C3)C2 (stereo not drawn)
→ 0.8, -11
CC(C)COc1ccc(-c2nnn(CC(=O)N3C(C)CCCC3C)n2)cc1 (stereo not drawn)
→ 1.4, 2
CCOC(=O)c1ccc(-c2ccc3c(c2)CCC3)nc1C
→ 0.8, nt
Cc1ccc(CNC(=O)CSc2nc3cc(S(=O)(=O)N4CCCCC4)ccc3o2)cc1
→ nt, -8
CC(C)(C)C(=O)/C(C#N)=C/Nc1ccc(Cl)cn1
→ nt, 13
CN1CCc2nc3sc(C(=O)c4ccc5c(c4)OCO5)c(N)c3cc2C1
→ 3.4, 32
CC(C)CCNC(=O)C1c2ccccc2C(=O)N(C)C1c1cn(C)c2ccccc12 (stereo not drawn)
→ 1.7, -2
CN(C(=O)CSCc1ccccc1)c1ccccc1
→ 0.6, 9
CC1SC2(OC1=O)C1CC3CC(C1)CC2C3 (stereo not drawn)
→ nt, 28
N/C(=N\OC(=O)CSc1ccccc1)c1ccncc1
→ -0.7, 6

No new results follow: an excerpt of the list.
Value order – MgrA DNA FP, Sa helicase inh
OCn1c(=S)sc2ccccc21
→ 10, 1
CCc1nnc(NC(=O)CC23CC4CC(CC(C4)C2)C3)s1
→ nt, 13
CC(C)(C)c1cc(C(c2ccccn2)N2CCCC2)cc(C(C)(C)C)c1O (stereo not drawn)
→ 2.9, 13
CC1CCCCC1NC(=O)c1nn(C)c2c1CS(=O)(=O)c1ccccc1-2 (stereo not drawn)
→ nt, 21
CSc1sc(-c2ccn(C(C)=O)n2)c2c1C(=O)CC(C)(C)C2
→ 0.5, nt
CN1C2=C(C#N)C(=O)CN2c2ccccc21
→ nt, 7

The list goes on.
Value order – MgrA DNA FP, Sa helicase inh
CC(C)(C)c1ccc(-c2nc(=S)[nH][nH]2)cc1
→ 2.8, 11
CCn1ccc(C(=O)Oc2ccc(Cl)cc2)n1
→ nt, -15
CN1CCN(S(=O)(=O)c2ccc(Oc3ccc(Br)cc3Cl)nc2)CC1
→ nt, -5
CCN(CC(O)COc1ccc(OCC(O)CN(CC)C2CCCCC2)cc1)C1CCCCC1 (stereo not drawn)
→ -7.5, 14
CN(Cc1ccccc1)Cc1nnc(-c2ccccc2)o1
→ nt, 18
OCc1ccccc1CN1CCOCC1
→ -2.2, -2
CC(C)NC(=O)CC(C)c1ccccc1 (stereo not drawn)
→ 0.3, 4
O=C(NC1CCCC1)c1cc(-c2ccc(F)cc2)no1
→ -1.9, 2
CC(C)(CC(=O)O)CC(=O)N1CCN(c2ccc(F)cc2)CC1
→ -1.2, nt
O=C(NCc1ccc2c(c1)OCO2)c1ccccc1CSc1nc2ccccc2o1
→ nt, -5

Some of these compounds in order of length of the SMILES, smallest number first.
Value order – MgrA DNA FP, Sa helicase inh
CCn1ccc(C(=O)Oc2ccc(Cl)cc2)n1
→ nt, -15
CN(Cc1ccccc1)Cc1nnc(-c2ccccc2)o1
→ nt, 18
CN1CCN(S(=O)(=O)c2ccc(Oc3ccc(Br)cc3Cl)nc2)CC1
→ nt, -5

Further entries:
Value order – MgrA DNA FP, Sa helicase inh
O=C(CSc1ccc2nnc(-c3ccccc3)n2n1)NC1CCCC1
→ nt, 10
Nc1ccc2c(c1)nc(-c1ccccc1)c1cc(N)ccc12
→ 5.2, 3
CSc1nc2c(sc(=S)n2-c2ccccc2C)c(=O)n1-c1ccccc1C
→ 6.8, -2
CN(C)c1nc(-c2ccccc2)[nH]c(=O)n1
→ -2.1, nt
CCc1ccc(Nc2cc(=O)n(C3CCCCC3)c(=O)[nH]2)cc1
→ -6.0, 4
O=C(CSc1nc2ccccc2o1)NCC1COc2ccccc2O1 (stereo not drawn)
→ nt, 16
O=C(O)COc1ccc(/C=C2\C(=O)NC(=O)N(c3ccccc3)C2=O)cc1Br
→ 4.9, nt
CC1=Nc2cc(C(=O)NCc3cccnc3)ccc2Sc2ccccc21
→ -0.9, 12
CCOC(=O)c1cccc(N2C(=O)C3C(C(=O)NC4CC4)C4(C)C=CC3(O4)C2C(=O)NC(C)(C)C)c1 (stereo not drawn)
→ -0.8, 7
COC(=O)c1cc(O)c(C(=O)OC)s1
→ 0.2, nt

Of the compounds above, these contain two or more sulfur atoms:
Value order – MgrA DNA FP, Sa helicase inh
O=S(=O)(NC1CCCCC1Sc1ncccn1)c1ccccc1 (stereo not drawn)
→ nt, -8
OCn1c(=S)sc2ccccc21
→ 10, 1
CSc1sc(-c2ccn(C(C)=O)n2)c2c1C(=O)CC(C)(C)C2
→ 0.5, nt
Cc1ccc(CNC(=O)CSc2nc3cc(S(=O)(=O)N4CCCCC4)ccc3o2)cc1
→ nt, -8
CSc1nc2c(sc(=S)n2-c2ccccc2C)c(=O)n1-c1ccccc1C
→ 6.8, -2

Following part.
Value order – MgrA DNA FP, Sa helicase inh
Cc1cc(C(F)(F)F)nn1CCCNC(=O)c1cccs1
→ -0.1, 22
CN1C(=O)/C(=C/C=C2\SCCN2C)OC1=S
→ 15, -68
C=C(C)c1cccc(C(C)(C)NC(=O)Nc2ccc(C)cn2)c1
→ nt, -12
N#Cc1ccccc1OCC(=O)Oc1ccc2c(c1)OCO2
→ nt, 26
CCN(c1ccccc1)S(=O)(=O)c1ccc(NCc2cccnc2)nc1
→ nt, -12
O=c1[nH]c2ccccc2n2c(=S)[nH]nc12
→ nt, -2
CC(C(=O)N(C(C)C)C(C)C)N1CCN(C)CC1 (stereo not drawn)
→ -1.6, 0
O=C1CN(C(=O)CSc2nc(-c3cccs3)cn2-c2ccccc2)c2ccccc2N1
→ nt, -14
O=C(Nc1ccc(C(=O)NCC2CCCO2)cc1)C1=CSCCO1 (stereo not drawn)
→ nt, 18
Cc1cccc(COC(=O)Nc2ccc(N3CCCCC3)cc2)c1
→ -2.6, 3
CC(C)(C)C(=O)Nc1cc(C2CC2)nn1-c1ccccc1
→ -1.7, nt
O=c1[nH]n(-c2ccccc2)c(=O)n1Cc1ccccc1F
→ nt, 7
